Assay outcomes (PubChem BioAssay)
Bead autofluor – counter-screen for toxin protease inhibitors: compound fluorescence | compound autofluorescence counterscreen, microsphere flow cytometry; hits give high values | fluorescence intensity (concentration not given with the values) | hit rate 3.1% among 360,000 | AID 624483;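 active = at least 3 SD above the mean of all compounds, about 16000 in these data; inconclusive = too few beads counted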;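 also: 100 nL of 1 mM stock went into each well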
BJeLR viability – kills HRASV12-expressing BJeLR cells. inhibition, % (no concentration beside the values). AID 1554. hit rate 0.17% among 300,000. BJeLR (HRASV12) viability, CellTiter-Glo ATP luminescence, 48 h; reference of the scale not given here;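 active = replicate mean above 50%; inconclusive = above 50% but judged a plate artefact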;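 also: 50 nL library stock added to about 25 µL; numbers are from one replicate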
PrP 5UTR inh – suppresses PrP 5' UTR mRNA reporter expression | cell-based PrP 5' UTR mRNA reporter, plate reader | inhibition, % (test concentration not listed) | hit rate 0.35% among 340,000;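 active = every replicate at 50% or more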;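 also: 0 = median of the neutral control wells; tested in H4 reporter cells; numbers are from one replicate; inactives centre near -14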
Sa RN4220 lethal – S. aureus RN4220 growth inhibition. OD600, 16 h. inhibition, % (no concentration beside the values). hit rate 0.33% among 330,000. AID 1259311;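 active = z-score of -3 or lower and OD600 up to 0.18 on both plates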;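 also: plate controls were untreated cells for no effect and reference antibiotic for full effect; stock transfer was 100 nL into about 80 µL; one replicate is shown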
Mtb hypoxia rep – Mtb hypoxia fluorescent reporter inhibition; M. tuberculosis hypoxia-regulated fluorescent reporter, fluorescence; fluorescence inhibition, % (test concentration not listed); hit rate 0.1% among 300,000;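 active = 35 to 45% if threefold the growth effect, above 45% if 1.5-fold the growth effect; inactive = the rest, general growth blockers included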;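 also: wells of about 50 µL received 100 nL stock; 0% = vehicle wells and 100% = reference inhibitor wells; whole bacteria with a GFP reporter of the hypoxia response; strong numbers were not always called active; many hits fall short of the cut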
Sa ugtP lethal – growth inhibition of S. aureus ugtP deletion strain | S. aureus RN4220 ugtP deletion, OD600 growth, 16 h; some inactives read as strong as hits | growth inhibition, % (concentration not given with the values) | hit rate 0.54% among 330,000 | AID 1259309;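 active = z-score under -3 and OD600 up to 0.15 on both plates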;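 also: plate controls were untreated wells for no effect and antibiotic for full effect; wells of about 80 µL received 100 nL stock; the first replicate is given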
Mtb hypoxia rep growth – second read-out of Mtb hypoxia rep, no call of its own (marks repeat the call); growth inhibition, %; measured here: M. tuberculosis growth (absorbance);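 0% = vehicle and 100% = reference antibiotic; read after six days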
Active calls of the source: *; u = inconclusive; x = not tested or not shown; & = joins results of further samples.

The line under a structure holds: Bead autofluor	BJeLR viability	PrP 5UTR inh	Sa RN4220 lethal	Mtb hypoxia rep	Mtb hypoxia rep growth	Sa ugtP lethal
O=C(NCC1CCCCC1)c1ccc([N+](=O)[O-])cc1
 : 3493	-3	-26	-2.0	x	x	4
Cc1csc2c(N3CCC(C(=O)O)CC3)ncnc12
 : 6025	-4	2	3.5	-6	8	5
CC(C)NC(=O)N(C)CC1Oc2ccc(NC(=O)Nc3ccc(C(F)(F)F)cc3)cc2CC(=O)N(C(C)CO)CC1C (centres undefined)
 : x	x	x	1.6	-7	3	-1
Brc1cc(Br)cc(CN2CCSCC2)c1
 : 5876	12	x	12	10	7	8
COc1cc(NC(=NS(=O)(=O)c2ccccc2)c2ccccc2)ncn1
 : 3650	x	11	4.6	11	2	6
CCOc1ccc(OCCC(=O)OCC(=O)NC2CCCC2)cc1
 : x	x	-8	3.1	8	7	3
CCOC(=O)C1=C(C)NC(=O)NC1c1cc(Br)c(O)c(OC)c1 (centres undefined)
 : 2818	-2	-11	3.9	8	7	-5
O=C(c1ccco1)N1CCN(C(c2cccs2)c2nnnn2C2CCCC2)CC1 (centres undefined)
 : 3838	-10	-20	0.6	-10	1	0
CCc1ccc(/C=C(/C#N)C(N)=S)cc1
 : 2026	2	-20	8.6	5	8	5
Cn1c(=S)[nH]c2ccccc21
 : 5943	x	-28	9.2	11	7	-12
C=CCn1c(O)c(N=NC(=O)OC(C)(C)C)c2ccccc21
 : 10796	-1	-22	6.4	8	3	-4
COc1cc(C(O)CO)ccc1OS(=O)(=O)O (centres undefined)
 : 6326	x	-23	-1.0	-7	-8	-2
Fc1ccc(NC(=S)N/N=C/c2ccc(F)c(F)c2)c(F)c1
 : u	-10	-22	x	x	x	x
CC1CCCC(NC(=O)CCS(=O)(=O)c2cc3c(cc2Cl)NC(=O)CO3)C1C (centres undefined)
 : 4852	-7	-10	2.9	12	6	1
C=CCc1cccc(C=NNC(=O)CNc2ccccc2OC)c1O
 : x	x	x	7.9	5	-2	1
Cc1cc(S(=O)(=O)N(Cc2ccccc2Cl)c2ccc3c(c2)CCC3)ccc1-n1cnnn1
 : 2234	-8	-2	2.5	-1	1	7
Cn1c(SCC(=O)NCc2ccccc2)nnc1-c1ccc(NC(=O)CCc2ccccc2)cc1
 : 2922	2	2	-3.3	x	x	10
CC1(c2ccc3ccccc3c2)NC(=O)N(CC(=O)Nc2cccc(S(=O)(=O)N3CCOCC3)c2)C1=O (centres undefined)
 : 2564	-2	-2	-2.5	-4	1	0
CCN(CC)S(=O)(=O)c1cccc(-c2nnc(SCc3nnc(-c4cccs4)o3)n2N)c1
 : 4123	-1	-6	6.5	0	-1	-5
O=C(NCCOc1ccccc1)c1ccccc1[N+](=O)[O-]
 : 3309	8	21	4.9	12	13	8
Cc1ccc(OCCC(=O)NCCc2ccc(S(N)(=O)=O)cc2)cc1
 : 2050	-19	3	4.2	0	6	3
COc1ccc(S(=O)(=O)N2CCN(CC3CC=CCC3)CC2)cc1 (centres undefined)
 : 4065	-5	-15	0.0	4	0	7
O=C(NN=Cc1cccnc1)c1cc(Br)ccc1O
 : x	x	x	7.4	9	8	8
CC(C)Cc1nnc(NC(=O)CS(=O)(=O)Cc2ccccc2)s1
 : 2083	4	2	5.1	-4	1	7
COc1cccc2cc(C(C)N(CCCN3CCOCC3)C(=S)Nc3ccccc3C)oc12 (centres undefined)
 : 5018	2	-13	3.1	9	-2	1
CC(C)(C)NC(=O)C(OC(=O)c1cccs1)c1ccc(F)cc1 (centres undefined)
 : 3937	6	-2	-3.5	-7	-3	-12
O=C(COC(=O)[C@@H]1CC(O)CN1S(=O)(=O)c1ccc(Cl)c(Cl)c1)NC(=O)NCc1ccccc1 (some centres undefined)
 : 3504	x	-10	1.0	7	6	1
O=[N+]([O-])c1ccc(CSc2nnc3ccccn23)cc1
 : 4232	4	27	-2.8	3	5	-13
CCOC(=O)c1nnn(CC(=O)N2N=C(c3cc(C)ccc3C)CC2c2ccc(OC)cc2)c1C(=O)OCC (centres undefined)
 : 2506	-9	-16	-4.4	-2	-1	-9
O=C(O)CSCC(=O)Nc1cccc2ccccc12
 : 9585	-3	-14	2.5	6	10	1
O=C(CCCn1c(=O)[nH]c2cc(Cl)ccc2c1=O)NCCCN1CCCC1=O
 : 2600	-5	-4	-3.5	x	x	11
Cc1cc(C(F)(F)F)c2c(N)c(C(=O)Nc3cc(C)on3)sc2n1
 : 6215	6	-40	3.3	5	-5	3
COc1ccccc1CNc1nc(SC)ncc1CO
 : 9353	1	-2	8.9	3	6	1
O=S(=O)(c1ccccc1)N(C1=NCCS1)S(=O)(=O)c1ccccc1
 : 15377	-9	-12	7.0	-1	-5	7
Cc1cc(C)cc(Oc2coc3c(CN(C)C)c(O)ccc3c2=O)c1
 : 3875	-9	-7	-1.2	7	-3	11
Cc1oc(C(=O)O)cc1COc1ccc2c(C)cc(=O)oc2c1
 : 10179	-7	-23	2.1	3	5	-5
COc1ccc(C(CNC(=O)c2cccc(S(=O)(=O)N3CCOCC3)c2)N2CCOCC2)cc1 (centres undefined)
 : 3877	x	-20	1.6	6	9	4
N#CC(C(=O)OC1CCCCC1)c1nc2ccccc2nc1N1CCCCC1 (centres undefined)
 : x	-5	x	4.6	-2	11	0
CCCCc1ccc(NC(=O)NCc2ccccn2)cc1
 : x	5	-3	-2.8	4	4	-10
O=C(CSc1ncnc2c1oc1ccccc12)Nc1cccc(F)c1
 : 4331	1	-44	-5.7	8	11	-17
CC(C)[C@H](NC(=O)c1ccccc1F)C(=O)Nc1ccc2c(c1)OCO2
 : 4180	x	-20	3.2	12	7	3
COc1ccc(C(=O)N/C(=C\c2ccccc2)C(=O)NC(CC(C)C)C(=O)O)cc1 (centres undefined)
 : 2577	-5	-36	x	x	x	x
CCCOC(=O)CN1C(=O)c2ccccc2C1=O
 : 3320	0	1	3.2	8	-1	-6
COc1ccc(C(=O)NNC(=S)NC2CCCCC2)cc1OC
 : 5451	-2	-13	1.8	-4	19	-6
CCSc1nnc(CNc2ccc(F)cc2)n1CC1CCCO1 (centres undefined)
 : 4560	2	-14	1.7	-1	1	2
CCOC(=O)C1=C(CSc2nc3c(cc2C#N)CN(C)CC3)OC(N)=C(C#N)C1c1ccc(F)cc1 (centres undefined)
 : 2427	-4	-13	1.5	x	x	1
Cc1c(NC(=O)CSc2nnnn2-c2ccc(C(=O)O)cc2)c(=O)n(-c2ccccc2)n1C
 : 3211	-2	-10	3.5	12	5	4
CCOc1ccc(CN2CCN(CCCc3ccccc3)C(CCO)C2)cc1 (centres undefined)
 : 3151	-3	-10	1.8	1	7	5
CCOc1ccc(/C=N/NC(=O)c2nnn(-c3nonc3N)c2COc2ccc(F)cc2)cc1
 : 3360	11	-19	x	x	x	x
COc1ccc2c(c1)C(C)CC(C)(C)N2C(=O)CSc1ncn[nH]1 (centres undefined)
 : 2917	-1	-32	9.5	12	8	5
Cc1cccc(N(C(=O)c2snc(C(N)=O)c2N)C(C(=O)NCC2CCCO2)c2c[nH]c3ccccc23)c1 (centres undefined)
 : 3256	-2	-10	4.5	6	0	-10
CCOc1ncccc1C(=O)OCC(=O)NCCCc1ccccc1
 : u	x	-11	-3.2	-13	-11	-5
O=C(NN=Cc1ccccc1O)NN=Cc1ccccc1O
 : 4062	x	7	0.4	3	2	-5
O=C(NCCCCNC(=O)c1ccc(F)cc1)c1ccc(F)cc1
 : 4108	-4	-10	1.2	3	6	2
CN(C)CCN[C@H]1CCC2C3CC=C4C[C@@H](O)CC[C@]4(C)C3CC[C@@]21C (some centres undefined)
 : 3653	x	-11	-0.7	15	13	8
CNC(=O)c1[nH]cnc1C(=O)NC(CCCCNC(=O)OC(C)(C)C)C(=O)OC(C)(C)C (centres undefined)
 : x	x	x	9.7	18	9	7
CCC(C)NC(=O)C1CCN(S(=O)(=O)CC)CC1 (centres undefined)
 : 11488	2	-8	2.5	5	6	3
CCC(=O)N1CCc2cc(Br)cc(S(=O)(=O)N3CCCCCC3)c21
 : 4649	2	-15	8.3	8	8	-2
O=c1[nH]c(CSc2ccccn2)nc2c1cnn2-c1ccccc1
 : 3330	0	-29	6.7	5	11	6
O=C(CSc1ncnc2c1oc1ccccc12)Nc1nc2ccccc2s1
 : 5573	3	3	8.1	0	4	-1

Next compounds follow.
The line under a structure holds: Bead autofluor	BJeLR viability	PrP 5UTR inh	Sa RN4220 lethal	Mtb hypoxia rep	Mtb hypoxia rep growth	Sa ugtP lethal
CCCc1nnc(NC(=O)CCC(=O)N2CCN(C3c4ccccc4-c4ccccc43)CC2)s1
 : 2330	-2	-17	4.3	6	0	-1
O=C(NC(=S)Nc1ccccc1N1CCOCC1)c1ccc(Br)cc1
 : u	-22	-10	-7.6	5	-1	94*
O=C(Cc1cccc([N+](=O)[O-])c1)Nc1ccc(C(=O)N2CCOCC2)cc1
 : 3391	x	-11	1.9	4	14	-5
FC(F)(F)c1cccc(-c2ccc(-c3csnn3)o2)c1
 : 4582	7	-9	0.5	-4	5	10
CN1CC2C3C(=O)N(C)C(=O)C3[C@](C)(C1=O)N2C(=O)c1ccc(Br)cc1 (some centres undefined)
 : x	x	x	7.1	16	8	0
COc1cccc(C2C3=C(CCCC3=O)NC3=C2C(=O)c2ccccc23)c1 (centres undefined)
 : x	-5	x	-1.1	6	-5	-1
O=C(/C=C/c1cccs1)Nc1nc(-c2ccccc2)cs1
 : 22955*	-1	-46	-3.3	9	9	5
O=C(NCCn1cc(SCc2ccc(F)cc2)c2ccccc21)c1c(F)cccc1F
 : 4269	9	-7	-12	1	2	13
COc1ccc2c(c1)CC1c3c(cc4c(c3-2)OCO4)CC[N+]1(C)[O-] (centres undefined)
 : 2666	2	-2	0.7	8	3	-1
CCC(=O)Nc1nc(C)c(Oc2ccccc2)c(=O)[nH]1
 : 2361	-1	-19	-1.0	x	x	12
Cc1ccc(C(=O)N/C(=C/c2cccnc2)C(=O)N2CCCCCC2)cc1
 : 5580	-2	-5	2.9	6	7	2
Cc1ccc(/C=N/NC(=O)c2ccco2)s1
 : 25160*	-2	-25	x	x	x	x
COc1ccc(CN2CCCCC2C(=O)Nc2ccc(OC)c(OCC(C)C)c2)cc1OC (centres undefined)
 : 8002	12	-22&-21	-7.1	-9	4	-8
NS(=O)(=O)c1ccc(NC(=O)N2c3ccccc3Sc3ccccc32)cc1
 : 9962	1	-12	0.0	11	8	1
CC(C)[C@H](NC(=O)[C@@H]1CSC2c3ccccc3C(=O)N21)C(=O)NCc1ccco1 (some centres undefined)
 : 6003	-3	-10	2.6	2	-4	7

The closing 2 compounds of the section before open the next one.
The line under a structure holds: Bead autofluor	BJeLR viability	PrP 5UTR inh	Sa RN4220 lethal	Mtb hypoxia rep	Mtb hypoxia rep growth	Sa ugtP lethal
NS(=O)(=O)c1ccc(NC(=O)N2c3ccccc3Sc3ccccc32)cc1
 : 9962	1	-12	0.0	11	8	1
CC(C)[C@H](NC(=O)[C@@H]1CSC2c3ccccc3C(=O)N21)C(=O)NCc1ccco1 (some centres undefined)
 : 6003	-3	-10	2.6	2	-4	7
Oc1ccccc1-c1cc(-c2ccccc2Cl)[nH]n1
 : 8064	x	-65	-8.8	7	3	2
CC[C@]12c3[nH]c4cc(-c5ccco5)ccc4c3CCN1C(=O)[C@@H](CC(=O)NCCC1=CCCCC1)C[C@@H]2C(=O)N1CCN(C(=O)c2ccco2)CC1
 : 3071	x	8	-2.8	-7	7	-12
COc1ccc(C(=O)NCc2csc(C)n2)cc1OC1CCN(C(C)=O)CC1
 : 4388	1	-25	5.4	3	-1	12
O=C(CCSc1ccc(Cl)cc1)NCc1ccncc1
 : 4553	21	-7	3.7	0	3	1
CCn1c(COc2cccc3cccnc23)nnc1SC(F)F
 : 3405	-1	-14	4.7	8	0	6
Cc1nc2c(Cl)cccc2c2c1CC(CBr)O2 (centres undefined)
 : 3846	-19	-4	4.0	3	1	5
COc1cc(C(=O)OCCNC(=O)c2ccccc2)cc(OC)c1OC
 : 3711	6	-13	1.4	9	-3	4
COc1ccc(S(=O)(=O)NCc2ccncc2)cc1NC(=O)c1ccccc1
 : 4291	9	-21	1.6	-6	1	4

Compounds were not picked by outcome; 4% or so of the library scored in one or more.
